# From PubChem
# MbtI inh: MbtI salicylate synthase inhibitors, primary screen, biochemical, fluorescence intensity; purified MbtI enzyme, fluorescence intensity read-out; AID 493033, 2011; hit rate 0.89% among 100,000; inhibition, %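 (about 17 µg/mL by stock and volumes)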; P9WFX0;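 active = above 50% in both replicates, above 80% if mildly self-fluorescent; inactive = the rest, strongly fluorescent compounds included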;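 note: 0% = mean of negative and 100% = mean of positive controls; one replicate is shown; some compounds called inactive have numbers as strong as hits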
# Target sequence (P9WFX0 whole entry, looked up): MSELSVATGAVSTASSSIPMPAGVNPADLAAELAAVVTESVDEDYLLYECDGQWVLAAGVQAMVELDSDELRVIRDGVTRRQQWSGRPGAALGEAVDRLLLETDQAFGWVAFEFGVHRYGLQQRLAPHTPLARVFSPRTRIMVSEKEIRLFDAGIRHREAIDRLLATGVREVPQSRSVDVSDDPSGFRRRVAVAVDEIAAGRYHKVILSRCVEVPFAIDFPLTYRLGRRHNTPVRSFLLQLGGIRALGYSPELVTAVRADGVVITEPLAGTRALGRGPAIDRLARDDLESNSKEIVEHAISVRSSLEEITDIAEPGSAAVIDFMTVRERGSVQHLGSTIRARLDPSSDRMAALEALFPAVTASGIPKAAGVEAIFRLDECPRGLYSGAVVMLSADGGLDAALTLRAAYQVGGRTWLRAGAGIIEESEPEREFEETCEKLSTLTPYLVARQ
# MenB inh: M. tuberculosis MenB inhibitors, primary screen, biochemical, absorbance; 1,4-dihydroxy-2-naphthoyl-CoA synthase (Mycobacterium tuberculosis (strain ATCC 25618 / …; MenB enzyme assay, absorbance read-out; some hits fall short of the stated cut; inhibition, %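 (about 12 µg/mL by stock and volumes)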; hit rate 0.43% among 100,000; AID 540299, 2011;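 active = mean of two replicates above 30%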;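 note: 0% = no compound and 100% = wells with inactive enzyme; the first replicate is given; strong numbers were not always called active; inactives centre near -10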
# Target sequence (P9WNP5 whole entry, looked up): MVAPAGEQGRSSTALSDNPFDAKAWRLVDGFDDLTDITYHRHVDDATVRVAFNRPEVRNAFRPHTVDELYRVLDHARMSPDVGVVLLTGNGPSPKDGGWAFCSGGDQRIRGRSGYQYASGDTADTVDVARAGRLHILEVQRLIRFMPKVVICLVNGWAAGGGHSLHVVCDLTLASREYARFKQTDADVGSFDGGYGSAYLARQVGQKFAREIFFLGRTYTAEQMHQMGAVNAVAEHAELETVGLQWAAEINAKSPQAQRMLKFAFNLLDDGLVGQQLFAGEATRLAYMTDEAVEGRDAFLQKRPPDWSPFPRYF
# PV pol inh: poliovirus RdRp elongation inhibitors, primary screen, biochemical, fluorescence polarization, total intensity. Genome polyprotein (Poliovirus type 1 (strain Mahoney)), P03300. poliovirus polymerase elongation; active compounds read low. % elongation, % (compound at 16.7 µg/mL). hit rate 0.66% among 150,000. AID 588519, 2011; in the data active = % elongation below about 90%; note: some results filed as inactive read as strong as hits
# PV pol inh intensity: also measured in PV pol inh; calls as there; % elongation; measured here: total intensity read-out; formula for this scale not given here;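 total fluorescence in place of polarization; lower means less elongation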
# * marks the source's active call; other numbers are inactive results; nt = no result given; & = joins results of further samples. Outcome played no part in choosing rows; about 1.8% have a hit in one of these screens.
no.	smiles	MbtI inh	MenB inh
1	COc1ccc(C2SC[C@H]3C(=O)N(c4ccccc4)C(=S)N23)cc1 (stereo partly drawn)	13	-3
2	CCOC(=O)C1CCN(C2CC(=O)N(c3ccc(N4C(=O)CC(N5CCC(C(=O)OCC)CC5)C4=O)cc3)C2=O)CC1 (stereo not drawn)	-4	-10
3	S=C(NCCc1ccccc1)N1CCC2(CC1)OCCO2	4	-10
4	COC(=O)C1=C(c2ccccc2)S(=O)(=O)CCN1C(C)=O	nt	-7
5	COc1cccc(-n2cc(C(=O)NCc3cccnc3)c3ccccc3c2=O)c1	-28	-15
6	Cn1c(CO)nc2cc(Cl)ccc21	-8	nt
7	O=C1C2CC=CCC2C(=O)N1c1ccccc1 (stereo not drawn)	0	-21
8	CCCCSc1ncc(C(=O)OCC)c(N)n1	11	-12
9	CC(=C1C(=O)c2ccccc2C1=O)N1CCN(c2ccccn2)CC1	12	-58
10	O=C(Cc1cccs1)NCC(c1ccco1)N1CCCCC1 (stereo not drawn)	1	3

no.	PV pol inh	PV pol inh intensity
1	102	99
2	99	102
3	100	99
4	105	114
5	103	103
6	100	102
7	100	101
8	101	101
9	99	101
10	110	123

# Continuation.
no.	smiles	MbtI inh	MenB inh
11	CC(C)OC(=O)c1c(F)c(F)c(F)c(F)c1F	-9	6
12	O=S(=O)(Nc1ccc(O)c(Sc2ncn[nH]2)c1)c1ccccc1	6	-18
13	O=C(NCCN1CCNC1=O)c1ccc2nccnc2c1	-2	9
14	NCCCSc1nc(C2CC2)n(-c2ccccc2)n1	-11	13
15	CCC(c1nnc(SCC(=O)Nc2cc(C)on2)o1)N(C)C (stereo not drawn)	-5	-10
16	c1ccc2sc(NC3=NCN(CCN4CCOCC4)CN3)nc2c1	nt	5
17	O=C(NCC1CCNCC1)/C(=N/O)c1ccccc1	-8	-15
18	O=C(CSc1ncn[nH]1)Nc1ccc(N2CCOCC2)cc1	11	-17
19	Cc1cc(C2=NNC(=NCC3CCCO3)SC2)c(C)n1-c1ccc(OC(F)F)cc1 (stereo not drawn)	-11	-59
20	COc1cc2c(cc1OC)CN(C(=O)CCc1ccccc1)CC2	0	-18

no.	PV pol inh	PV pol inh intensity
11	101	103
12	100	95
13	101	107
14	96	104
15	98	96
16	102	104
17	103	105
18	101	102
19	113	110
20	101	110

# (list continues)
no.	smiles	MbtI inh	MenB inh
21	O=C(COC(=O)c1cc(Cl)nc(Cl)c1)NC(c1ccccc1)c1ccccc1	-9	nt
22	COC(=O)c1ccc(S(=O)(=O)NCc2ccco2)o1	-5	2
23	Cc1nc2c(n1C1CCCCC1)C(=O)c1ccccc1C2=O	-9	1
24	CNCCC=C1c2ccccc2CCc2ccccc21	2&-7	-7&6
25	O=C(Cn1c(SCc2cccc(C(F)(F)F)c2)nc2ccncc21)NCCC1=CCCCC1	6	-14
26	COc1ccc(N2CCN(C(CNS(=O)(=O)c3cccs3)c3cccnc3)CC2)cc1 (stereo not drawn)	0	-12
27	O=C(CCSCc1ccc(Cl)cc1)N1CCN(c2ccccc2)CC1	2	-36
28	CC(C)CCN=CC1=C(O)CC(c2ccccc2)CC1=O (stereo not drawn)	1	4
29	COC(=O)c1cc(NC(=O)COc2ccc3c(c2)OCO3)cc(C(=O)OC)c1	-6	-6
30	CCC(C(=O)NC1CCCC1)n1c(SCc2ccc(C)cc2)nc2ccncc21 (stereo not drawn)	-1	-9

no.	PV pol inh	PV pol inh intensity
21	105	109
22	98	97
23	95	100
24	98&99	101&100
25	104	107
26	99	107
27	102	106
28	99	98
29	104	110
30	104	106

# Just MenB inh, MbtI inh and PV pol inh, for two of the compounds above:
entry | Compound | MenB inh | MbtI inh | PV pol inh
16 | c1ccc2sc(NC3=NCN(CCN4CCOCC4)CN3)nc2c1 | 5 | nt | 102
17 | O=C(NCC1CCNCC1)/C(=N/O)c1ccccc1 | -15 | -8 | 103

# Single records (already shown). Order of values: MbtI inh | MenB inh | PV pol inh | PV pol inh intensity
# Record of O=C(COC(=O)c1cc(Cl)nc(Cl)c1)NC(c1ccccc1)c1ccccc1 = -9 | nt | 105 | 109
# Record of O=C(CCSCc1ccc(Cl)cc1)N1CCN(c2ccccc2)CC1 = 2 | -36 | 102 | 106
# Record of Cc1nc2c(n1C1CCCCC1)C(=O)c1ccccc1C2=O = -9 | 1 | 95 | 100
# Record of COc1ccc(N2CCN(C(CNS(=O)(=O)c3cccs3)c3cccnc3)CC2)cc1 (stereo not drawn) = 0 | -12 | 99 | 107

# Other records follow:
no.	smiles	MbtI inh	MenB inh
31	O=C(Cc1ccc(S(=O)(=O)N2CCCCC2)cc1)Nc1cccnc1	0	-20
32	N#CC(C#N)=C(Nc1ccc(Br)cc1)SCc1ccc(F)cc1	nt	3
33	O=C(O)c1ccc(NC(=O)C2C3C=CC(C3)C2C(=O)O)cc1 (stereo not drawn)	-7	-16
34	CCc1cc(-c2[nH]ncc2-c2ccc(OC)cc2)c(O)cc1OC	-6	-18
35	CC(C)(C)NC(=O)Nc1c2ccccc2nc(=O)n1Cc1ccccc1	21	-28
36	O=C(NCc1ccccc1Cl)c1ccccc1	-13	-59
37	CC1C=CCC2C(=O)N(c3ccc(OC(=O)c4ccco4)cc3)C(=O)C12 (stereo not drawn)	-6	-81
38	CCOC(=O)CNc1n[nH]c(=O)[nH]c1=O	-7	-16
39	Oc1c(C2=NCCNC(C(F)(F)F)=C2)ccc2ccccc12	9	-123
40	COc1cc(OC)c(NC(=O)Cc2noc3ccc(C)cc23)cc1Cl	-2	-26

no.	PV pol inh	PV pol inh intensity
31	108	107
32	95	90
33	100	102
34	102	100
35	104	104
36	97	103
37	102	100
38	109	110
39	102	97
40	103	106

# Continued.
no.	smiles	MbtI inh	MenB inh
41	OC1(c2ccccc2)CN2CCC1CC2 (stereo not drawn)	-9	4
42	Cc1nnc(NC(=O)CCCN2C(=O)/C(=C/c3cccs3)SC2=S)s1	-2	-8
43	COc1ccc2nc(N3CCCCC3)c(/C=C3\N=C(c4ccccc4)OC3=O)cc2c1	nt	-10
44	COc1ccc(CCNC(=O)CNCC2CCCO2)cc1OC (stereo not drawn)	-8	-50
45	O=C(COC(=O)c1ccc(Br)o1)NC12CC3CC(CC(C3)C1)C2	-10	14
46	Cc1nn(-c2ccccc2)c2sc(C(=O)N(Cc3ccco3)C(C)C(=O)NC3CCCCC3)cc12 (stereo not drawn)	4	-85
47	CC(=O)N(c1ccc(N(C(C)=O)S(=O)(=O)c2cccs2)cc1)S(=O)(=O)c1cccs1	-1	5
48	O=C(Cn1cnc2ccccc2c1=O)OCC(=O)c1c[nH]c2ccccc12	-6	-3
49	COCCN1Cc2cccc(C(=O)Nc3ccc4nc(-c5cccnc5)[nH]c4c3)c2C1=O	-3	4
50	COc1ccc(-c2[nH]ncc2C(=O)NCCCc2ccccc2)cc1	-4	-10

no.	PV pol inh	PV pol inh intensity
41	101	106
42	103	103
43	106	111
44	100	104
45	99	107
46	100	99
47	103	104
48	nt	nt
49	100	103
50	103	98

# Additional compounds
no.	smiles	MbtI inh	MenB inh
51	CCCC(=O)N=C1SC2CS(=O)(=O)CC2N1Cc1ccccc1 (stereo not drawn)	-21	-11
52	CCOC(=O)NC1(/N=C(/Nc2ccccc2)N2CCOCC2)Oc2ccccc2O1	nt	13
53	O=C(NCCc1ccccc1)c1ccc(-c2ccccc2)cc1	nt	-8
54	COc1ccc(C(=O)CSc2nc3c(cc2C#N)CCCC3)cc1	6	-19
55	Cc1c2cnn(-c3ccccc3)c(=O)c2c(C)n1CCCC(=O)NC(C)(C)C	0	-3
56	CS(=O)(=O)N1CC(=O)Nc2ccccc21	-17	-13
57	CC(C)(C)C1CCC(=NNC(=O)c2ccccc2O)CC1 (stereo not drawn)	-1	-22
58	COc1ccc(CN(Cc2cccs2)C(=O)c2ccc(C)o2)cc1OC	-1	-24
59	O=C1c2ccccc2C2N1c1ccccc1S(=O)(=O)N2Cc1ccccc1 (stereo not drawn)	nt	-22
60	CCC(CC)NC(=O)c1cc(=O)[nH]c2ccccc12	-5	1

no.	PV pol inh	PV pol inh intensity
51	100	101
52	105	108
53	98	111
54	98	102
55	104	103
56	106	107
57	105	103
58	104	106
59	103	108
60	100	102

# (cont.)
no.	smiles	MbtI inh	MenB inh
61	Cc1cccc(OCC(=O)OCCN2CCCC2=O)c1	-7	nt
62	CCCCCCN1C=CC(=C2C(=O)c3ccccc3C2=O)C=C1	-4	-27
63	O=c1[nH]c2ccc(S(=O)(=O)NCc3cccnc3)cc2[nH]1	-7	-6
64	CCN(C(=O)CCc1ccccc1)c1ccccc1	nt	-23
65	COc1cc(OC)c(NC(=O)Cn2nc(C)c3c(C)n(-c4ccccc4)nc3c2=O)cc1Cl	-23	5
66	O=C(O)CCC1NCC(Cn2c3ccccc3c3ccccc32)OC1=O (stereo not drawn)	8	-6
67	CCOc1ccc(CN(C)C(=O)CNC(=O)c2ccc(Br)o2)cc1OC	1	-21
68	O=C(/C=C/c1ccc(Cl)cc1)Nc1nnc(C2CC2)s1	-1	nt
69	CCOc1ccccc1N(C)C(=O)c1cc2cc3ccc(OC)cc3nc2s1	0	-26
70	CCC(=O)c1ccc(Cl)c(Cl)c1	3	nt

no.	PV pol inh	PV pol inh intensity
61	100	97
62	91	116
63	100	108
64	107	101
65	102	103
66	nt	nt
67	113	121
68	102	105
69	100	104
70	106	99

# Following part.
no.	smiles	MbtI inh	MenB inh
71	COc1ccc(Nc2ccc3nnc(-c4ccc(Br)cc4)n3n2)cc1	14	-27
72	CC(C)c1ccc(NC(=O)CSc2ncnc(N)n2)cc1	-3	-5
73	CCn1c(-c2ccc3c(c2)OCCO3)cnc1SCc1cc(=O)n2ccsc2n1	6	-8
74	CNC(=O)C1CCN(c2nnc(-n3c(C)ccc3C)s2)CC1	6	-26
75	COc1ccc(Cn2c(=O)c3oc4ccccc4c3n(CC(=O)Nc3ccccc3)c2=O)cc1	-4	-24
76	Cn1c(CNC(=O)Cc2cccnc2)nnc1SCc1ccccc1	2	-67
77	Cc1ccc(OCc2nc(N)nc(N(C)C)n2)cc1C	nt	-9
78	C=CCn1c(SCc2nnc(-c3cccs3)o2)nc2scc(C3CC3)c2c1=O	6	-17
79	Cc1ccc2oc(=O)n(CC(C)C)c2c1	3	-23
80	Cc1ccc2nc(SCC(=O)N(C(C)C)C(C)C)[nH]c2c1	2	-27

no.	PV pol inh	PV pol inh intensity
71	103	96
72	100	101
73	104	105
74	104	105
75	102	104
76	105	101
77	106	108
78	104	113
79	100	100
80	102	104

# (continued)
no.	smiles	MbtI inh	MenB inh
81	O=C(NCc1ccc(Cl)cc1)c1ccc2c(=O)n(-c3ccccc3)c(=O)[nH]c2c1	-7	-9
82	Cc1ccc(C(=O)OCc2cn3ccccc3n2)cc1	-68	nt
83	CC(=O)N1[C@@H](c2ccc(C)cc2)SC(C)(C)[C@@H]1C(=O)O	-12	-3
84	CCOC(=O)c1sc(Nc2nc3ccccc3nc2Cl)c(C#N)c1C	26	8
85	Cc1c(NC2CS(=O)(=O)CC2O)c(=O)n(-c2ccccc2)n1C (stereo not drawn)	nt	-25
86	c1ccc(SCCN2CCN(CCSc3ccccc3)CC2)cc1	nt	-18
87	CC1Cc2ccccc2N1CC(=O)Nc1ccc(C#N)cc1 (stereo not drawn)	-9	12
88	CC1=CC(c2ccc(F)cc2)C(C(=O)O)(C(=O)n2nc(C)cc2C)CC1 (stereo not drawn)	nt	-4
89	COc1ccc(C(=O)n2ncc(C#N)c2N)cc1	-5	-3
90	CNC(=S)Nc1cscc1S(=O)(=O)c1ccc(Cl)cc1	-7	8

no.	PV pol inh	PV pol inh intensity
81	100	99
82	102	97
83	108	108
84	102	109
85	110	107
86	98	100
87	104	110
88	96	99
89	96	103
90	102	103

# Next part.
no.	smiles	MbtI inh	MenB inh
91	COc1ccccc1C(=O)COC(=O)CCC1CCCC1	4	nt
92	O=C(/C=C/Sc1ccccn1)c1ccccc1	5	-36
93	O=C(CN1CC=C(c2ccccc2)CC1)NCc1cccs1	-2	-28
94	COc1ccc(OC)c(CNC(=O)C2CCCN(S(=O)(=O)N3CC(C)CC(C)C3)C2)c1 (stereo not drawn)	10	-18
95	O=C1/C(=C/c2cccnc2)CS/C1=C\c1cccnc1	12	1
96	CCOC(=O)/C(=N\Nc1ccccc1Cl)N(C)C1CCN(C)CC1	27	-2
97	Cc1ccc(Cc2c(C)nc(N3CCCC3)[nH]c2=O)cc1	-2	-12
98	CNC(=S)N(Cc1ccco1)Cc1cc2ccc(C)cc2[nH]c1=O	-6	-39
99	Cc1ccc2oc(=O)c3cc(C(=O)NCCN4CCN(Cc5ccccc5)CC4)sc3c2c1	16	2
100	CCn1cc(C(C)(C)C)c(C#N)c1NC(C)=O	nt	3
101	CC(O)CNC(=O)C1CC(=O)N(c2ccccc2)C1 (stereo not drawn)	5	-62
102	O=S(=O)(CCc1ccccc1)/N=C/c1cccs1	-13	nt

no.	PV pol inh	PV pol inh intensity
91	102	106
92	96	101
93	108	110
94	103	110
95	101	96
96	103	105
97	100	101
98	101	103
99	100	103
100	103	108
101	102	100
102	102	100
